# Screens from PubChem BioAssay.
# Sa RN4220 lethal: S. aureus RN4220 growth inhibition. OD600, 16 h. inhibition, % (test concentration not listed). 330,000 tested, 0.33% active;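 active = z-score of -3 or lower and OD600 up to 0.18 on both plates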;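 also: plate controls were untreated cells for no effect and reference antibiotic for full effect; stock transfer was 100 nL into about 80 µL; one replicate is shown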
# Sa ugtP lethal: growth inhibition of S. aureus ugtP deletion strain; S. aureus RN4220 ugtP deletion, OD600 growth, 16 h; some inactives read as strong as hits; growth inhibition, % (no concentration beside the values); 330,000 tested, 0.54% active;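 active = z-score under -3 and OD600 up to 0.15 on both plates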;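 also: plate controls were untreated wells for no effect and antibiotic for full effect; wells of about 80 µL received 100 nL stock; the first replicate is given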
# * marks the source's active call; other numbers are inactive results. Not all compounds are listed (hit frequency here may not be typical).
# The first 2 records, ahead of the listing:
SMILES,Sa RN4220 lethal,Sa ugtP lethal
COc1ccc(NC(C)C(=O)NN=Cc2ccccc2OCc2ccc(Br)cc2)cc1 (centres undefined),-0.5,-3
COc1ccc(C=Nc2oc(-c3ccccc3)cc2C#N)cc1OC,9.4,0

# Results, repeating the preview:
SMILES,Sa RN4220 lethal,Sa ugtP lethal
COc1ccc(NC(C)C(=O)NN=Cc2ccccc2OCc2ccc(Br)cc2)cc1 (centres undefined),-0.5,-3
COc1ccc(C=Nc2oc(-c3ccccc3)cc2C#N)cc1OC,9.4,0
CCOc1cc(C=NNc2nc(N3CCCC3)nc(N3CCCC3)n2)ccc1O,5.0,8
COc1ccc(-c2nn(-c3ccccc3)cc2C=NNS(=O)(=O)c2ccccc2)cc1,-0.9,-7
CCOc1ccc(C(=O)NN=C(c2ccccc2)c2ccccn2)cc1,13,-7
CC(CC(=O)Nc1c(C)cc(C)cc1C)=NNC(=O)OC(C)(C)C,2.1,5
O=C(NN=Cc1ccc([N+](=O)[O-])cc1)c1ccc2nc[nH]c2c1,-0.5,5
COc1cccc(C=NNC(=O)c2ccc(COc3ccc(Cl)cc3Cl)o2)c1,5.2,-14
CCC(C)NC(=O)CON=Cc1ccc(C(=O)OC)cc1 (centres undefined),-1.3,4
CC(SCc1ccccc1)C(=O)NN=Cc1ccc2c(c1)OCO2 (centres undefined),-0.3,1
CN(C)C=Nc1sc2c(c1C#N)CCCCC2,6.5,11
Cc1ccc(C=NNC(=O)c2csc3c2CCCC3)cc1,-6.6,-7
CCCC1S/C(=N/N=Cc2cccs2)NC1=O (centres undefined),1.3,-13
CC(CC(=O)Nc1c(Cl)cccc1C(F)(F)F)=NNC(=O)c1cnccn1,2.2,3
C=CCc1c(C)nc(C)nc1NN=Cc1ccccc1,-1.3,1
CCOc1cc(C=NNC(=O)CN2CCOCC2)ccc1OCc1ccc(Cl)cc1,-2.0,-4
CCCC(O)=NS(=O)(=O)c1ccc(N=NN(C)C)cc1,3.1,18
COc1ccc(C=NN=C(N)N[N+](=O)[O-])c(OC)c1,0.5,0
Fc1ccccc1C=NNc1nn[nH]n1,3.3,-4
Cc1ccc2occ(C=NO)c(=O)c2c1,-1.5,0
CC(=O)ON=C(C)c1ncc(C(F)(F)F)cc1N1CCOCC1,6.9,10
COc1ccc(C=NNC(=O)C2=NNC(=O)C2C)cc1 (centres undefined),0.5,3
CC(=NNC(=O)c1cccc(C)c1)c1cccc(NC(=O)c2ccco2)c1,-0.1,1
Brc1ccc(-c2nc(NN=Cc3cccnc3)c3ccccc3n2)cc1,42,41
O=C(NN=Cc1cccc(F)c1)c1csc2c1CCCC2,1.8,5
N#CC(C(N)=O)=c1ccc2c(c1)N1C3=C(CCCC3)CC3CCCCC31N=2 (centres undefined),20,-18
CCOC(=O)C1=C(C)N=c2sc(=Cc3ccccc3)c(=O)n2C1c1ccc(OC)c(OC)c1 (centres undefined),5.8,8
O=C1CCCC2=C1C(c1ccccc1)n1c(sc(=Cc3cccc(F)c3)c1=O)=N2 (centres undefined),-2.7,0
CC(=NO)C(=O)NCC1CCNCC1,-0.3,2
Cc1cc(-c2n[nH]c(=S)n2N=C/C=C/c2ccccc2)n[nH]1,3.4,-1
CCCC(=NO)c1c[nH]c2ccccc12,-0.7,-7
CC(=NNC(N)=S)c1ccccc1[N+](=O)[O-],-0.6,2
CCCOc1ccc(Br)cc1C=NO,8.7,30
CCOc1cc(C=NO)ccc1OS(=O)(=O)c1ccc(C)cc1,12,0
CC(/C=C/c1ccccc1)=NNC(=O)c1ccc2c(c1)OCCO2,11,0
COc1ccc(C=NNC(=O)c2nn(-c3ccc(C)c(C)c3)c(=O)c3ccccc23)cc1,3.0,-7
COc1ccc(N(CC(=O)NN=Cc2ccc(-c3ccc([N+](=O)[O-])cc3)o2)S(=O)(=O)c2ccc(C)cc2)cc1Cl,-11,-3
Cc1ccc(-c2n[nH]c(=S)n2N=Cc2ccc(C)s2)cc1,2.6,-5
Cc1ccc(C=c2sc3n(c2=O)CN(c2cccc(Br)c2)CN=3)o1,0.1,-3
COc1ccc(NN=C(C=NO)C(=O)c2ccc(OC)cc2)cc1,8.5,-15
O=C(NN=CC1CCCCC1)c1cc(Cl)ccc1O,7.7,11
O=C(COc1ccc([N+](=O)[O-])cc1)NN=Cc1ccccn1,0.2,1
Cc1cc(C)c(OCC(=O)NN=Cc2ccco2)c(C)c1,-0.4,4
COCCNC(=O)C(=O)NN=Cc1ccccc1C(F)(F)F,0.9,3
CC(=NO)C(=O)NCc1ccncc1,-2.5,-1
COc1ccccc1/C=C/C=NN1CCN(c2ccccn2)CC1,-3.9,-2
Cc1ccc(C=NNC(=S)NC(C)C)o1,1.3,-1
Cc1ccc(C2C(C#N)=C(N)Oc3c2sc2ccccc32)o1 (centres undefined),3.0,8
CC(=NNS(=O)(=O)c1ccc(Cl)cc1)c1cccc(NC(=O)c2ccc(Cl)cc2Cl)c1,-1.9,-17
COc1ccc(Br)cc1C=NNC(=O)CNC(=O)/C=C/c1ccccc1,1.6,-5

# More structures follow:
SMILES,Sa RN4220 lethal,Sa ugtP lethal
O=C1C2C3C=CC(C4CC34)C2C(=O)N1N=Cc1ccc(-c2ccccc2[N+](=O)[O-])o1 (centres undefined),-1.8,-4
O=C(Nc1ccccc1)ON=C1CCCCC1c1ccc([N+](=O)[O-])cc1[N+](=O)[O-] (centres undefined),-0.4,-4
CCN(N=Cc1cccs1)c1cc(=O)n(C)c(=O)[nH]1,4.4,-6
CCc1ccc2c(Cl)c(C(=O)NN=Cc3c[nH]c4ccccc34)sc2c1,0.9,18
O=C(C=NO)NCCCn1ccnc1,-0.2,-2
COc1ccc(CC(O)=C(C#N)c2nc3ccccc3[nH]2)cc1OC,-2.4,1
Cc1cccc(C=Nn2c(C)nnc2C)c1,-7.4,-1
COc1ccc(C2C(C(C)=O)=C(C)N=c3sc(=Cc4ccc5c(c4)OCO5)c(=O)n32)c(OC)c1 (centres undefined),-6.4,-14
COc1ccc(C=NNC(=O)c2ccc(Cn3cc([N+](=O)[O-])cn3)o2)cc1O,-1.6,-5
CN/S(=N\S(=O)(=O)c1ccccc1)c1ccc(C)cc1 (centres undefined),0.6,-3
Cc1ccc(-n2cccc2C=Nn2cnnc2)cc1Cl,2.5,6
C=C(C)CN=c1scc(C)n1N=Cc1ccco1,4.9,10
COc1ccc(C(C)=NN2C(=O)c3ccccc3NC2c2ccc(O)c(OC)c2)cc1 (centres undefined),1.9,-16
Nc1nnnn1N=Cc1cc(Cl)cc(Cl)c1OCc1ccc(Cl)cc1Cl,-0.1,-4
C=CCn1c(COc2ccccc2)nnc1SC(C)C(=O)NN=Cc1cc(Cl)ccc1O (centres undefined),-16,-19
COc1ccc(C=NNS(=O)(=O)c2ccccc2)cc1OS(=O)(=O)c1ccccc1,9.7,-6
COCC(=O)NN=C(C)CC(=O)Nc1ccccc1C(N)=O,3.2,9
COc1ccc(N(CC(=O)NN=Cc2cccc3c2OCCO3)S(=O)(=O)c2ccc(NC(C)=O)cc2)cc1,-5.4,2
ON=Cc1cc(Br)ccc1OCc1ccccc1F,6.2,87*
CCc1ccc(C=NNC(=S)NCCc2ccccc2)cc1,2.3,2
O=C(NN=Cc1ccc(OCCCF)cc1)c1cc(OCC(F)(F)F)ccc1OCC(F)(F)F,2.9,5
Cc1ccccc1N(CC(=O)NN=Cc1cc(C)n(-c2ccccc2C)c1C)S(C)(=O)=O,1.4,-2
CC(=NOC(=O)c1ccc(Cl)cc1)c1sc(-c2ccccc2)nc1C,1.8,2
N#Cc1ccc(Oc2ccc(C=NO)cn2)cc1,0.8,3
COc1cccc(OCc2cc(C=NNC(=O)c3ccn[nH]3)ccc2OC)c1,3.3,-4
COc1cc(OC)c(OC)cc1C=NNC(=O)CC1C(=O)NN=C1C (centres undefined),0.6,6
Cc1ccc(C=Nn2c(-c3cccnc3)n[nH]c2=S)s1,12,3
COC[C@]12CN(C)C3C4[C@H](OC)C1C3([C@@H](OC)C[C@H]2O)[C@@H]1C[C@@]2(O)[C@H](OC(=O)c3ccccc3)[C@@H]1[C@]4(OC(C)=O)[C@@H](O)[C@@H]2OC,2.4,-6
CC(=NOC(=O)c1ccc(C)cc1)c1ccc(N2C(=O)C3CCCCC3C2=O)cc1 (centres undefined),2.9,2
ON=Cc1c[nH]c2ccccc12,0.9,-5
CC(=NNC(=O)c1nn(C)cc1Br)c1cccc(NC(=O)C(C)(C)C)c1,-1.0,3
N#Cc1cnn(Cc2ccccc2)c1N=CN1CCOCC1,-6.7,-1
CCCCC(CCCC)=NN=Cc1c(O)n(CC)c2cc(C3=NNC(=O)CC3)ccc12,4.8,-8
CC(=NOC(=O)NC(C)C)c1sc(-c2ccc(Cl)cc2)nc1C,8.6,-7
Cc1cccn2c(C=NOCc3ccc(F)cc3)c(-c3ccc(Cl)cc3)nc12,-4.6,-12
CC(Cn1nc([N+](=O)[O-])cc1C)=NNC(=O)c1ccc(O)cc1O,-1.0,-4
COc1cc(C=NN=C2CC3CCC2(C)C3(C)C)ccc1O (centres undefined),-2.9,-1
CCC(C)C(NC(=O)OC(C)(C)C)c1nnc(SCc2c(C)[nH]c(=O)[nH]c2=O)o1 (centres undefined),7.1,0
CCCc1cc(C(=O)NN=Cc2ccc(C)o2)c2ccccc2n1,4.7,-1
Cn1ccsc1=NS(=O)(=O)c1ccc(F)cc1,4.5,10
CCCCc1n[nH]c2c1C(=NO)CC(C)(C)C2,3.1,8
CC(C)Oc1ccc(C=NNC(=O)C2CCCN2S(=O)(=O)c2ccc(Cl)cc2)cc1 (centres undefined),-0.4,0
CCC(C)=NN=Cc1c(O)n(CC)c2cc(C3=NNC(=O)CC3)ccc12,-3.8,-6
S=c1[nH]ncn1N=Cc1ccccc1,15,13
O=C(CON=Cc1ccccc1O)NNC(=O)c1ccccc1Cl,-0.8,4
C/C(C=NNC(=O)c1cc(-c2ccc(Cl)cc2)nc2ccccc12)=C\c1ccco1,-1.9,-1
CC1S/C(=N/N=Cc2ccco2)NC1=O (centres undefined),1.3,8
O=S(=O)(c1cnccc1N1CCN(N=Cc2ccc(Cl)cc2)CC1)N1CCCCC1,-5.0,-2
O=C(NN=Cc1ccc(F)cc1)c1csnn1,2.0,6
CC(CCc1ccco1)=NNC(=O)CCC(=O)Nc1cccc(Cl)c1,4.7,0

# Given with two lines to a compound: entries from further up
# The line under a structure holds: Sa RN4220 lethal, Sa ugtP lethal
> C=CCc1c(C)nc(C)nc1NN=Cc1ccccc1
  -1.3, 1
> CCOc1cc(C=NNC(=O)CN2CCOCC2)ccc1OCc1ccc(Cl)cc1
  -2.0, -4
> CCCC(O)=NS(=O)(=O)c1ccc(N=NN(C)C)cc1
  3.1, 18
> COc1ccc(C=NN=C(N)N[N+](=O)[O-])c(OC)c1
  0.5, 0

# Further records follow.
SMILES,Sa RN4220 lethal,Sa ugtP lethal
CC(=NNC(=O)c1cc(Cl)ccc1O)C12CC3CC(CC(C3)C1)C2,67,68
Cc1cc(C)c2c(c1)C(=NNS(=O)(=O)c1ccccc1)CCC2,-3.3,0
CCc1ccc(C=NNC(=O)c2cc(C3CC3)nc3ccc(Br)cc23)s1,-3.4,-1
COc1cccc(C=NNC(=O)C2C(=O)NCC2c2ccccc2)c1O (centres undefined),3.3,2
C(=Nc1ncnc2sccc12)NOCc1ccccc1,3.6,-9
Cc1ccc(S(=O)(=O)N(CC(=O)NN=Cc2cccc(C)c2)c2cccc3cccnc23)cc1,0.9,-11
Cc1cccc(C=NNC(=O)c2cc3c(s2)-c2ccccc2CC3)c1,-21,27
Cc1ccc(C2=[N+]([O-])C3(CCCCCC3=NO)N(O)C2(C)C)o1 (centres undefined),1.9,4
Nc1nonc1-n1nnc(C(=O)NN=Cc2ccccc2F)c1CN1CCOCC1,4.0,7
CON=C(C)c1ncc(C(F)(F)F)cc1N1CCOCC1,0.9,1
CC(=O)NC1=NC(=O)C(=CN2CCOCC2)S1,2.8,-3
Cc1nn(-c2ccccc2)c(C)c1C=NNC(=O)c1cc(-c2ccccc2)n[nH]1,9.9,-1
Cn1cccc1C=Nn1c(-c2ccc(C(C)(C)C)cc2)n[nH]c1=S,4.7,4
Cc1ccc(Sc2ccc(C=NO)cc2[N+](=O)[O-])cc1,-0.2,22
COc1cc(C=NNC(=O)C2c3ccccc3Oc3ccccc32)ccc1O,-0.2,-15
CN(C(=NS(=O)(=O)c1ccccc1)C(F)(F)F)c1ccccc1,1.7,2
O=C(NN=C/C=C/c1ccco1)c1cccc([N+](=O)[O-])c1,-0.2,10
Cc1ccc(S(=O)(=O)NN=Cc2cc3c(cc2Br)OCO3)cc1,2.4,7
CCCCn1c(N=Cc2ccc(N(C)C)cc2)nc2ccccc21,-0.9,0
CCSc1ncc(C=NNc2ccc(F)cc2)n1C,-3.5,4
COc1ccc(C(=O)Oc2cc(C=NNS(=O)(=O)c3ccccc3)ccc2OC)cc1,-1.8,0
O=C(CON=Cc1cccc([N+](=O)[O-])c1)Nc1ccc2ccccc2c1,-13,-4
Cc1cc(O)c(C=NNc2ccc(Cl)cc2)c(=O)o1,-1.7,3
Cc1ccc(C=NNC(=O)c2cc(OCC(F)(F)F)ccc2OCC(F)(F)F)cc1,-2.6,3
FCCCOc1ccc(C=NOCc2ccc(Cl)cc2Cl)cc1,-4.9,67
CCSc1ncc(C=NNc2ccccc2)n1C,0.9,3
